High-throughput results (PubChem)
StopGo reporter = High Throughput Screening for Foot and Mouth Disease Virus Antivirals | 1.2% of 410,000 active | Potency, µM (titrated, usually from 57.9 µM), inactives show at the top dose signal change, negative = less light | human cells with a luciferase reporter of 2A StopGo recoding; control for the full effect not named in the record; active = well fitted falling curve with a large enough effect; inconclusive = small, poorly fitted or top-dose-only effect; inactive = no such curve, though single readings can be large or run the other way; tested in HEK293T cells; also: nearly all actives have a fitted effect of over 45% in size; luciferase light after 4 h
Starred values were filed as active, the others as inactive; ? = inconclusive; [ ] = dose if it differs, or a comment. % is scaled to controls: 0 for no effect and ±100 for the full control effect; potency is read from the fitted curve at half-maximal effect. The list is partial, so the mix of outcomes need not match the whole.

Start of the data: the first four compounds, ahead of the listing:
SMILES | StopGo reporter
COc1cc(=O)n2c(c1C(=O)N(C)Cc1nccs1)CCN(Cc1ccc(F)c(F)c1)CC2 | -3%
COc1ccc2c(c1)CCc1cnc(-n3ncc(C(=O)N(C)CCc4ccccn4)c3C)nc1-2 | -11%
COc1ccc(OC)c(C(=O)N(Cc2cc3cccc(C)c3nc2N2CCC(O)CC2)C2CC2)c1 | 1%
COc1ccc(CN2CCC(n3cc(C(=O)N4CCCC4)nn3)CC2)c(OC)c1C | -13%

The list itself, repeating the preview:
SMILES | StopGo reporter
COc1cc(=O)n2c(c1C(=O)N(C)Cc1nccs1)CCN(Cc1ccc(F)c(F)c1)CC2 | -3%
COc1ccc2c(c1)CCc1cnc(-n3ncc(C(=O)N(C)CCc4ccccn4)c3C)nc1-2 | -11%
COc1ccc(OC)c(C(=O)N(Cc2cc3cccc(C)c3nc2N2CCC(O)CC2)C2CC2)c1 | 1%
COc1ccc(CN2CCC(n3cc(C(=O)N4CCCC4)nn3)CC2)c(OC)c1C | -13%
CCCCC1CN(CCNC(=O)c2ccccn2)Cc2ccccc2O1 (stereo not given) | -11%
CC(C)(CNC(=O)c1cnn(-c2ncc3c(n2)-c2ccccc2CCC3)c1C1CC1)N1CCOCC1 | -4%
COc1c(C=O)c(O)cc2c1C(=O)c1ccccc1C2=O | 5%[97.4 µM]
COc1ccc(OC)c(CN2CCCC(c3nc(-c4ccncc4)ncc3-c3ccccc3C)C2)c1 (stereo not given) | 4%
Cc1ncc2c(c1CNS(=O)(=O)N(C)C)CCN(C(=O)/C=C/c1ccccc1Cl)C2 | -3%
Cc1c(C(=O)N(C)C2CCOC2)sc2ncnc(NCC3(c4ccccc4)CCOCC3)c12 (stereo not given) | -17%
CC(C)c1c(C(=O)NCc2ccncc2)cnn1-c1nccc(-c2cccs2)n1 | 3%
O=C(O)c1ccc(-c2cccc(-c3nn4c(=O)cc(N5CCNCC5)nc4s3)c2)cc1 | -10%
CCn1nc(C)cc1C(=O)NCC1Cc2cc(C)cc(-c3ccccc3C(=O)OC)c2O1 (stereo not given) | -13%
CCN1CCCC1CNC(=O)c1cnn(-c2nccc(-c3cc(OC)ccc3OC)n2)c1C (stereo not given) | -3%
COC(=O)C1CCN(Cc2ccc3c(c2)CN(C(=O)c2sc(C)nc2C)CCO3)CC1 | -8%
COc1cccc(-c2cc3c(c(OC)c2)OCCN(Cc2ccccc2O)C3)n1 | -15%
N#CC(C#N)=C(N)/C(C#N)=C/c1ccc2[nH]ccc2c1 | 5%[97.4 µM]
OCCNc1nc(Nc2ccccc2OC(F)(F)F)nc(N2CCCC2)n1 | -25%
COc1ccccc1C(=O)N1CCOc2ccc(CN3CCN(Cc4ccccn4)CC3)cc2C1 | -7%
COCCN1CCN(C(=O)c2cnn(-c3nccc(-c4ccccc4F)n3)c2-c2ccco2)CC1 | 0%
COCc1ccc(CN2CCOc3c(cc(-c4cc(C)c5cccc(OC)c5n4)cc3OC)C2)o1 | -11%
Cc1c(C(=O)NCC(C)(C)N2CCOCC2)cnn1-c1nccc(-c2cccs2)n1 | -6%
O=C1Cc2cc(S(=O)(=O)N3CCN(c4ccc(C(=O)O)cc4)CC3)ccc2N1 | -19%
COc1ccc(S[C@@H]2C[C@@H](C(=O)Nc3ccc4nccnc4c3)N(C3Cc4ccccc4C3)C2)cc1 | 10%
Cc1ccc(C(=O)N(Cc2cc3cccc(C)c3nc2N2CCC(O)CC2)C2CC2)cc1 | -13%
Cc1cc(C(=O)Nc2ccccc2-c2nc(CNC(=O)C3(C)CCCCC3)c(C)o2)c(C)o1 | 1%
O=C(Cn1cncn1)NCC1Cc2cc(-c3ccsc3)cc(Cl)c2O1 (stereo not given) | 3%
CC(=O)c1ccc(F)c(-c2cc(C)cc3c2OC(CNC(=O)c2ccnn2C)C3)c1 (stereo not given) | -10%
COCc1ccc(C(=O)N2CCOc3ccc(CN4CCN(c5ccc(F)cc5)CC4)cc3C2)o1 | ?
CC(C)Cc1nc2cc(NS(=O)(=O)N(C)C)cc(C(=O)N3CCSCC3)c2n1C | 23%
CCC1(C2CCN(C(=O)c3ccc(C)cc3C)CC2)NC(=O)N(CCc2scnc2C)C1=O (stereo not given) | 21%
O=C(O)CCc1cc(I)c(O)c(I)c1 | -22%
CCCS(=O)(=O)NCc1c(C)ncc2c1CCN(C(=O)/C=C/c1cccc(Cl)c1)C2 | -11%
COc1cccc(CN(C)C(=O)c2cnn(-c3nccc(-c4ccc5c(c4)OCO5)n3)c2C)c1 | 53%[activator]
C[n+]1c2cc(N)ccc2cc2ccc(N)cc21 (tested in a mixture with another compound) | -7%
OCCNc1nc(Nc2ccccc2Cl)nc(N2CCCC2)n1 | -21%
COC(=O)[C@@H]1CCCN1Cc1ccc2c(c1)CN(Cc1coc3ccc(C)cc3c1=O)CCO2 | -9%
Cc1c(C(=O)N2CCCCC2c2cccnc2)sc2ncnc(NCc3cccs3)c12 (stereo not given) | 8%
Cc1nc(CN(C)c2ncnc3ccc(-c4ccc5c(c4)OCO5)cc23)cs1 | ?
O=C(C1CCCCC1)N(CCN1CCN(c2ccccc2CO)CC1)c1ccccn1 | -17%
C[C@@H]1CN(Cc2ccc3c(c2)CN(C(=O)CN2CCOc4ccccc4C2)CCO3)C[C@H](C)O1 | -7%
COc1ccc(O)c(CN2CCC3(CCC(CNC(=O)c4ccco4)O3)CC2)c1 (stereo not given) | -11%
Cc1csc(C(C)N(C)C(=O)c2cnn(-c3nccc(-c4cc(C)sc4C)n3)c2C)n1 (stereo not given) | 48%[activator]
NCCN1CCN(CC(=O)N2c3ccccc3C(=O)Nc3cccnc32)CC1 | -3%
O=C(NCCCCN1CCOCC1)c1cc2ccccc2o1 | 0%
CC(C)CC(NC(=O)NC(CCC(=O)O)C(=O)O)C(=O)O (stereo not given) | -7%
COC(=O)c1cc(CNC(=O)c2ccccc2OC)cc(NC(=O)c2ccccc2F)c1 | 32%[activator]
Cc1cccc2c(N3CCCC3)nc(CNS(=O)(=O)c3ccc4ccccc4c3)nc12 | 4%

An excerpt of these results, as labelled records:
Molecule: O=C(C1CCCCC1)N(CCN1CCN(c2ccccc2CO)CC1)c1ccccn1
  StopGo reporter: -17%

Molecule: COC(=O)[C@@H]1CCCN1Cc1ccc2c(c1)CN(Cc1coc3ccc(C)cc3c1=O)CCO2
  StopGo reporter: -9%

Molecule: Cc1cccc2c(N3CCCC3)nc(CNS(=O)(=O)c3ccc4ccccc4c3)nc12
  StopGo reporter: 4%

Molecule: CC(C)CC(NC(=O)NC(CCC(=O)O)C(=O)O)C(=O)O (stereo not given)
  StopGo reporter: -7%

Next compounds follow.
SMILES | StopGo reporter
CCOC(=O)C1=C[C@@H](OC(CC)CC)[C@H](NC(C)=O)[C@@H](N)C1 | -5%
CC(C)(CNC(=O)c1cnn(-c2nccc(-c3cccs3)n2)c1C1CC1)N1CCOCC1 | 0%
Cc1cnc(-n2ncc(C(=O)NCCN3CCOCC3)c2-c2cccs2)nc1-c1ccc(F)cc1 | -2%
COc1cc(=O)n2c(c1C(=O)N(C)Cc1nonc1C)CCN(Cc1ccc(C)cc1C)CC2 | -13%
COc1ccc(CN2CCOc3ccc(CN4CCC(O)(c5cccnc5)CC4)cc3C2)c(C)c1C | -24%
N[C@H](C(=O)O)C1C(C(=O)O)C1C(=O)O (stereo not given in full) | -4%
Cc1nccn1CC1CCC2C(C1=O)c1ccccc1N2C (stereo not given) | 5%
O=C(NCc1nnc2n1CCN(Cc1cccc(C(F)(F)F)c1)CC2)c1ccncc1 | -12%
CCC1CN(CCNC(=O)c2ccsc2)Cc2cc(OC)ccc2O1 (stereo not given) | 11%
COc1cc(=O)n2c(c1C(=O)N1CCc3ccccc3C1)CCN(Cc1ccc(CO)o1)CC2 | 3%
Cc1ccc(CN2CCOc3ccc(CN4CCN(CCO)CC4)cc3C2)s1 | -5%
CC(C)C1C(=O)N2CCC[C@H]2[C@]2(O)O[C@](NC(=O)[C@@H]3C=C4c5cccc6[nH]cc(c56)C[C@H]4N(C)C3)(C(C)C)C(=O)N12 (stereo not given in full) | 0%
CNC(=O)[C@@H]1C[C@H](Sc2nc3ccccc3[nH]2)CN1Cc1cccc(C(F)(F)F)c1 | -9%
COCc1ccc(CN2Cc3ccccc3OC(c3ccccc3OC)C2)o1 (stereo not given) | -3%
COc1cc(=O)n2c(c1C(=O)NCc1ccco1)CCN(Cc1ccc3ccccc3c1)CC2 | -12%
C=CC1=C(C)C2=CC3=NC(=C(CC(=O)[O-])C4=NC(=C(C)C4=C([O-])[O-])C=c4[n-]c(c(C)c4CC)=CC1=N2)C(CCC(=O)[O-])C3C.[Cu+2].[Na+].[Na+].[Na+] (stereo not given) | ?
COC(=O)c1cccc(C(=O)N2CCc3c(cnc(C)c3CNC(=O)c3ccsc3)C2)c1 | -12%
COCC(=O)Nc1cc(C(=O)NC2Cc3ccccc3C2)cc2nc(-c3cccnc3)n(C)c12 | 4%
CCc1nc2cc(C(=O)NC3CCOC(C)(C)C3)cc(NC(=O)c3ccccc3OC)c2n1C (stereo not given) | 1%
COc1cccc(C(=O)NCC2Cc3cccc(-c4ncccn4)c3O2)c1OC (stereo not given) | -11%
CC1(C)c2[nH]c3ccccc3c2C[C@@H]2C(=O)N(Cc3ccccc3Cl)C(=O)N21 | -3%
COc1cc(=O)n2c(c1C(=O)N(C)Cc1ccsc1)CCN(Cc1c(C)nn(C)c1Cl)CC2 | 0%
Cc1ccc2cc(CNC(C)c3cccc4ccccc34)c(N3CCC(O)CC3)nc2c1 (stereo not given) | 0%
Cc1c(C(=O)NCCc2ccncc2)cnn1-c1nccc(-c2ccccc2C(F)(F)F)n1 | -20%
CCC1CN(CCNC(=O)c2ccc3c(c2)OCCO3)Cc2cc(OC)ccc2O1 (stereo not given) | 8%
O=C(NCC1CCC2(CCN(Cc3c[nH]c4ccccc34)CC2)O1)C1CCOCC1 (stereo not given) | 4%
O=C(CSc1ccncc1)NCC1Cc2cccc(-c3cncnc3)c2O1 (stereo not given) | 3%
CCC(=O)N[C@@H]1c2ccccc2C2(CCN(Cc3[nH]c4c(Cl)cccc4c3C)CC2)[C@H]1OC | -13%
Nc1ncn(C2CC(O)C(CO)O2)c(=O)n1 (stereo not given) | -9%
Cc1cnc(C)c(-c2ccc(F)c3c2OC(CNC(=O)/C=C/c2cccs2)C3)n1 (stereo not given) | ?
CC(C)C(=O)NCC1CCC2(CCN(Cc3ccc(-c4ccccc4Cl)o3)CC2)O1 (stereo not given) | -1%
Cc1nc2sccn2c1CN1CCOc2ccc(CN3C[C@@H](C)O[C@@H](C)C3)cc2C1 | ?
CCn1c(-c2ccccc2F)nc2cc(NC(C)=O)cc(C(=O)N3CCCC3c3nccs3)c21 (stereo not given) | -13%
COc1ccc(OC)c(CN2C[C@H](Sc3ccc(F)cc3)C[C@H]2C(=O)N(C)C)c1 | -7%
COc1ccc(-n2c(CCNC(=O)c3ccccc3C(F)(F)F)nnc2SC)cc1 | 0%
COc1cc2nc(N(C)C)c(CNCCc3c[nH]c4ccccc34)cc2c(OC)c1OC | 0%
CCC1CN(CCNC(=O)c2cccc(N3CCCC3=O)c2)Cc2cc(OC)ccc2O1 (stereo not given) | 20%
Cc1oc(-c2ccccc2NC(=O)c2cccnc2)nc1CNC(=O)C1CCCCCN1C (stereo not given) | -22%
COCC(=O)Nc1cc(C(=O)N2CCCC(c3ccccc3)CC2)c2c(c1)nc(-c1ccncc1)n2C (stereo not given) | -7%
COC(=O)[C@@H]1CCCN1Cc1ccc2c(c1)CN(Cc1ccccc1)CCO2 | -10%
CC1(C)Oc2ccc(C#N)cc2[C@@H](OC2=CC(=O)CC2)[C@@H]1O | 6%[97.4 µM]
CCOC(=O)N1CCN(Cc2ccc3c(c2)CN(C(=O)c2cc(-c4ccccc4)no2)CCO3)CC1 | 25µM*
CCOC(=O)N1CCN(Cc2ccc3c(c2)CN(C(=O)c2sc(C)nc2C)CCO3)CC1 | ?
COc1cc(=O)n2c(c1C(=O)N(C)Cc1nccs1)CCN(Cc1cc3ccccc3s1)CC2 | -11%
Cc1oc(-c2ccccc2NC(=O)C2CCCO2)nc1CNC(=O)c1[nH]c2c(C)ccc(C)c2c1C (stereo not given) | -14%
Cc1ncc2c(c1CNC(=O)c1ccc3c(c1)OCO3)CCN(C(=O)/C=C/c1ccc(Cl)cc1)C2 | -11%
OC(c1ccc2c(c1)CN(Cc1c[nH]c3ccccc13)CCO2)c1ccccn1 (stereo not given) | 3%
COc1ccccc1-n1cc(C(=O)NCCN2Cc3ccccc3OC(c3ccsc3)C2)cn1 (stereo not given) | -9%
CCC1C(=O)NCCN1Cc1ccc2c(c1)CN(Cc1cccc(OC)c1)CCO2 (stereo not given) | 3%
CSc1ccc2cc(CNCc3ccccc3F)c(N3CCCC(CO)C3)nc2c1 (stereo not given) | 8%
CC[N+]1(C)C2CCC1CC(OC(=O)[C@H]1CCC(C(=O)OC3CC4CCC(C3)[N+]4(C)CC)(c3ccccc3)c3ccccc31)C2 (stereo not given in full) | -2%
COc1cc(=O)n2c(c1C(=O)N(C)Cc1nccs1)CCN(Cc1cc(C)cc(C)c1)CC2 | -16%
CC(C)c1c(C(=O)N2CCN(CCO)CC2)cnn1-c1nccc(-c2cccs2)n1 | -5%
Cc1nc2ccc(C(=O)NCC3CCC4(CCN(Cc5cccnc5)CC4)O3)cc2nc1C (stereo not given) | -8%
O=C(NCCc1ccncc1)c1cnn(-c2ncc3c(n2)-c2ccccc2CCC3)c1C1CC1 | -12%
CC(=O)N1CCC[C@H]1C(=O)NCC1Cc2cc(C)cc(-c3ccc(Cl)cc3)c2O1 (stereo not given in full) | -4%
COc1cc(CN2CCCC(n3cc(C(=O)N4CCCCC4)nn3)C2)cc2c1OCO2 (stereo not given) | -7%
COCc1ccc(CN2Cc3ccccc3OC(c3ccccc3F)C2)o1 (stereo not given) | 2%
CCN1CCCC1CNC(=O)c1cnn(-c2ncc(C)c(-c3ccc(F)cc3)n2)c1C(C)C (stereo not given) | -7%
